Source: PubChem
Vaccinia inh: blocks a specific stage of Vaccinia orthopoxvirus infection, primary screen, cell-based, single point | Vaccinia-infected cells, mCherry/Venus stage reporter fluorescence; stronger effect = lower value; some inactives read as strong as hits | activity change (mCherry), % (concentration not given with the values) | 89,000 tested, 0.01% active | AID 1053133, 2014;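 active means mCherry past -33% and 40 or more points under the early reporter, replicates agreeing; inconclusive means past -33% without that gap or agreement; tested in A549 cells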;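 further: scaled between vehicle wells and reference inhibitor wells; 23 nL library stock went into each well; one replicate is shown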
Vaccinia inh Venus: also measured in Vaccinia inh; calls as there; activity change (Venus), %; measured here: Venus reporter, other viral stage;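 negative = less Venus signal; first of two replicates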
An asterisk follows results filed as active. Only part of the results is shown; count on the stated rates, not on these rows.

Screening Cc1noc(C)c1NC(=O)Nc1ccc2c(c1)C(=O)N([C@@H](C)CO)C[C@@H](C)[C@H](CN(C)Cc1ccc(Cl)c(Cl)c1)OCCCC[C@@H](C)O2 returned Vaccinia inh inconclusive.
`C[C@H]1CN([C@@H](C)CO)S(=O)(=O)c2ccc(-c3ccncc3)cc2O[C@@H]1CN(C)Cc1cncnc1` gave Vaccinia inh 1 and Vaccinia inh Venus -9.
For O=C(C1CCOCC1)N1CC(=O)N2[C@H](CO)[C@@H](c3ccc(-c4cccnc4)cc3)[C@H]2C1 the results were Vaccinia inh 9 and Vaccinia inh Venus 5.
C[C@H]1CN([C@@H](C)CO)C(=O)Cc2cc(NC(=O)Cc3ccccc3)ccc2O[C@H]1CN(C)C(=O)Nc1ccc2c(c1)OCO2 was read as Vaccinia inh 4 and Vaccinia inh Venus 4.
COCC#Cc1ccc2c(c1)O[C@@H](CN(C)Cc1ccccn1)[C@@H](C)CN([C@@H](C)CO)S2(=O)=O was read as Vaccinia inh 5 and Vaccinia inh Venus 6.
Screening CC(C)c1cn(CC[C@H]2CC[C@@H](NC(=O)Nc3cc(Cl)cc(Cl)c3)[C@@H](CO)O2)nn1 returned Vaccinia inh -18 and Vaccinia inh Venus -13.
COc1cccc(-c2cn(CC[C@H]3CC[C@@H](NC(C)=O)[C@H](CO)O3)nn2)c1 was read as Vaccinia inh 2 and Vaccinia inh Venus -1.
Screening C[C@@H]1CN([C@@H](C)CO)C(=O)c2cc(C#C[C@@H](C)O)cnc2O[C@@H]1CN(C)Cc1ccccn1 returned Vaccinia inh 33 and Vaccinia inh Venus 9.
Screening C[C@H](CO)N1C[C@H](C)[C@@H](CN(C)S(=O)(=O)c2ccccc2)Oc2ccc(NC(=O)Cn3cnnn3)cc2CC1=O returned Vaccinia inh 20 and Vaccinia inh Venus 19.
For COc1ccc(-c2ccc3n(c2=O)C[C@H]2[C@H](CO)[C@@H](C(=O)Nc4ccccc4)N(C)[C@@H]32)cc1 the results were Vaccinia inh 15 and Vaccinia inh Venus 11.
For C[C@@H]1CCCCO[C@@H](CN(C)C)[C@@H](C)CN([C@H](C)CO)C(=O)c2cc(NS(C)(=O)=O)ccc2O1 the results were Vaccinia inh 18 and Vaccinia inh Venus 9.
For C[C@H]1CN([C@@H](C)CO)C(=O)Cc2cc(NS(=O)(=O)c3ccccc3)ccc2O[C@H]1CN(C)Cc1ccncc1 the results were Vaccinia inh 23 and Vaccinia inh Venus 15.
`C/C=C/c1ccc([C@@H]2[C@H](CO)N(C(=O)c3cnccn3)C23CN(C(=O)C2CCC2)C3)cc1` gave Vaccinia inh 4 and Vaccinia inh Venus 8.
For CCCN(C)C[C@H]1OCCCC[C@H](C)Oc2ccc(NS(=O)(=O)c3ccc(OC)cc3)cc2C(=O)N([C@H](C)CO)C[C@H]1C the results were Vaccinia inh -25 and Vaccinia inh Venus -12.
Screening CO[C@@H](CN(C)S(=O)(=O)c1ccc(Cl)cc1)[C@@H](C)CN(C(=O)Nc1ccccc1F)[C@H](C)CO returned Vaccinia inh -8 and Vaccinia inh Venus 6.
`C[C@H](CO)N1C[C@H](C)[C@H](CN(C)Cc2ccccc2C(=O)O)Oc2cc(-c3ccc(F)cc3)ccc2S1(=O)=O` gave Vaccinia inh 15 and Vaccinia inh Venus 11.
C[C@H]1CN([C@@H](C)CO)C(=O)c2cc(C#CC3CCCC3)cnc2O[C@H]1CN(C)Cc1ccncc1 was read as Vaccinia inh 0 and Vaccinia inh Venus -12.
For C[C@@H]1CN([C@H](C)CO)C(=O)c2cccc(NC(=O)C3CCCCC3)c2O[C@@H]1CN(C)Cc1ccc(C(=O)O)cc1 the results were Vaccinia inh 13 and Vaccinia inh Venus 13.
`C[C@@H]1CN([C@H](C)CO)C(=O)Cc2cc(NS(=O)(=O)c3ccccc3)ccc2O[C@@H]1CN(C)Cc1ccc(Oc2ccccc2)cc1` gave Vaccinia inh inconclusive.
O=C(c1cnccn1)N1CC(=O)N2[C@H](CO)[C@@H](c3ccc(C#CCc4ccccc4)cc3)[C@H]2C1 was read as Vaccinia inh 18 and Vaccinia inh Venus 3.
`CN1C(=O)c2cc(NC(=O)C3CCCC3)ccc2OC[C@@H]2O[C@H](CC(=O)NCCc3ccncc3)CC[C@H]21` gave Vaccinia inh 15 and Vaccinia inh Venus 6.
C[C@H]1CN([C@@H](C)CO)C(=O)c2cc(/C=C/c3ccccc3)cnc2O[C@H]1CN(C)C(=O)Nc1ccc(C(F)(F)F)cc1 was read as Vaccinia inh inconclusive.
CCC(=O)N(C)C[C@@H]1Oc2ncc(C#CCC(C)C)cc2C(=O)N([C@H](C)CO)C[C@@H]1C was read as Vaccinia inh 14 and Vaccinia inh Venus 10.
`C[C@@H]1CN([C@H](C)CO)C(=O)c2cccc(NS(=O)(=O)c3ccc(F)cc3)c2O[C@@H]1CN(C)C` gave Vaccinia inh 17 and Vaccinia inh Venus 5.
Screening C[C@@H]1CN([C@@H](C)CO)C(=O)c2cccc(NS(=O)(=O)c3cn(C)cn3)c2O[C@H]1CN(C)Cc1ccncc1 returned Vaccinia inh 12 and Vaccinia inh Venus 4.
For C[C@H]1CN([C@@H](C)CO)C(=O)Cc2cc(NS(=O)(=O)c3ccc(F)cc3)ccc2O[C@H]1CN(C)C(=O)Nc1ccccc1 the results were Vaccinia inh 9 and Vaccinia inh Venus 8.
O=C(N[C@H]1CC[C@H](CCNC(=O)C2CCCC2)O[C@H]1CO)c1ccncc1 was read as Vaccinia inh -6 and Vaccinia inh Venus -7.
COc1ccc(S(=O)(=O)Nc2ccc3c(c2)C(=O)N([C@H](C)CO)C[C@@H](C)[C@H](CN(C)S(=O)(=O)c2cccs2)OCCCC[C@@H](C)O3)cc1 was read as Vaccinia inh inconclusive.
`C[C@@H]1CN([C@@H](C)CO)C(=O)c2cc(NC(=O)CCCN(C)C)ccc2O[C@H]1CN(C)C(=O)Nc1cccc2ccccc12` gave Vaccinia inh 20 and Vaccinia inh Venus 15.
COc1ccccc1NC(=O)N[C@@H]1C=C[C@H](CC(=O)N[C@H](C)c2ccccc2)O[C@H]1CO was read as Vaccinia inh -2 and Vaccinia inh Venus 1.

Quoted from the entries so far, six compounds:
`C[C@H](CO)N1C[C@H](C)[C@H](CN(C)Cc2ccccc2C(=O)O)Oc2cc(-c3ccc(F)cc3)ccc2S1(=O)=O` gave Vaccinia inh 15 and Vaccinia inh Venus 11.
C[C@H]1CN([C@@H](C)CO)C(=O)c2cc(C#CC3CCCC3)cnc2O[C@H]1CN(C)Cc1ccncc1 was read as Vaccinia inh 0 and Vaccinia inh Venus -12.
For C[C@@H]1CN([C@H](C)CO)C(=O)c2cccc(NC(=O)C3CCCCC3)c2O[C@@H]1CN(C)Cc1ccc(C(=O)O)cc1 the results were Vaccinia inh 13 and Vaccinia inh Venus 13.
`C[C@@H]1CN([C@H](C)CO)C(=O)Cc2cc(NS(=O)(=O)c3ccccc3)ccc2O[C@@H]1CN(C)Cc1ccc(Oc2ccccc2)cc1` gave Vaccinia inh inconclusive.
O=C(c1cnccn1)N1CC(=O)N2[C@H](CO)[C@@H](c3ccc(C#CCc4ccccc4)cc3)[C@H]2C1 was read as Vaccinia inh 18 and Vaccinia inh Venus 3.
`CN1C(=O)c2cc(NC(=O)C3CCCC3)ccc2OC[C@@H]2O[C@H](CC(=O)NCCc3ccncc3)CC[C@H]21` gave Vaccinia inh 15 and Vaccinia inh Venus 6.

Further entries:
Screening COc1ccc(CN(C)C[C@@H]2OCCCC[C@H](C)Oc3ccc(NS(=O)(=O)c4cn(C)cn4)cc3C(=O)N([C@H](C)CO)C[C@@H]2C)cc1 returned Vaccinia inh 23 and Vaccinia inh Venus 10.
`O=C(C[C@H]1CC[C@@H](NC(=O)Cc2cccnc2)[C@H](CO)O1)Nc1ccc(-c2ccccc2)cc1` gave Vaccinia inh -15 and Vaccinia inh Venus -13.
CCCC(=O)Nc1ccc2c(c1)C(=O)N(C)C[C@@H](OC)[C@@H](C)CN(C(=O)c1ccccc1F)[C@H](C)CO2 was read as Vaccinia inh -8 and Vaccinia inh Venus 5.
`O=C(Nc1ccc2c(c1)[C@@H]1C[C@@H](CC(=O)N3CCc4ccccc4C3)O[C@@H](CO)[C@@H]1O2)c1ccc2c(c1)OCO2` gave Vaccinia inh -26 and Vaccinia inh Venus -11.
CC=Cc1ccc2n(c1=O)C[C@@H]1[C@@H](CO)[C@H](C(=O)N[C@@H](C)c3ccccc3)[C@H]2N1CC1CC1 (mixture of isomers) was read as Vaccinia inh -6 and Vaccinia inh Venus -8.
Screening Cc1noc(C)c1S(=O)(=O)Nc1ccc2c(c1)C(=O)N([C@@H](C)CO)C[C@@H](C)[C@@H](CN(C)C(=O)NC(C)C)O2 returned Vaccinia inh 20 and Vaccinia inh Venus 29.
For C[C@@H]1CN([C@H](C)CO)C(=O)CCCn2nncc2CO[C@@H]1CN(C)CC1CCCCC1 the results were Vaccinia inh 15 and Vaccinia inh Venus 12.
For Cn1cnc(S(=O)(=O)N[C@@H]2CC[C@@H](CC(=O)NCC3CCCCC3)O[C@@H]2CO)c1 the results were Vaccinia inh 13 and Vaccinia inh Venus 8.
C[C@@H]1CN([C@H](C)CO)C(=O)Cc2cc(NC(=O)c3ccncc3)ccc2O[C@H]1CN(C)C(=O)Nc1ccc2c(c1)OCO2 was read as Vaccinia inh 17 and Vaccinia inh Venus 17.
C[C@@H](O)C#Cc1cnc2c(c1)C(=O)N([C@@H](C)CO)C[C@H](C)[C@H](CN(C)C(=O)c1ccccc1)O2 was read as Vaccinia inh 9 and Vaccinia inh Venus 6.
For COCCNC(=O)C[C@H]1C=C[C@@H](NC(=O)NC2CCCCC2)[C@H](CO)O1 the results were Vaccinia inh -2 and Vaccinia inh Venus 1.
For CC(C)N(C[C@H]1N[C@H](CO)[C@@H]1c1ccccc1)C(=O)CN1CCOCC1 the results were Vaccinia inh 4 and Vaccinia inh Venus -1.
`O=C(C1CCCCC1)N1CC[C@@H]2[C@H](CO)Nc3ccc(Br)cc3[C@@H]21` gave Vaccinia inh -7 and Vaccinia inh Venus -8.
`COCC(=O)N1CC(=O)N2[C@H](CO)[C@H](c3ccc(C#CC4CC4)cc3)[C@@H]2C1` gave Vaccinia inh 3 and Vaccinia inh Venus 8.
Screening C[C@@H]1CN([C@@H](C)CO)C(=O)CCCn2nncc2CO[C@@H]1CN(C)S(=O)(=O)c1ccc2c(c1)OCCCO2 returned Vaccinia inh 18 and Vaccinia inh Venus 10.
`C[C@H]1CN([C@@H](C)CO)S(=O)(=O)c2ccc(C3=CCCCC3)cc2O[C@H]1CN(C)C(=O)Cc1ccccc1` gave Vaccinia inh inconclusive.
O=C(C[C@@H]1CC[C@@H]2[C@H](COC[C@H](O)CN2S(=O)(=O)c2ccc(F)cc2)O1)N[C@H]1CCN(Cc2ccccc2)C1 was read as Vaccinia inh -6 and Vaccinia inh Venus -7.
OC[C@@H]1[C@H](c2ccc(C#CC3(O)CCCC3)cc2)[C@@H]2CN(Cc3ccncc3)CCCCN12 was read as Vaccinia inh 25 and Vaccinia inh Venus 3.
For COc1cccc(NC(=O)N(C)C[C@@H]2Oc3cc(C#CC4(O)CCCC4)ccc3S(=O)(=O)N([C@H](C)CO)C[C@@H]2C)c1 the results were Vaccinia inh -11 and Vaccinia inh Venus -9.
`CN(C)CC(=O)Nc1ccc2c(c1)[C@@H]1C[C@@H](CC(=O)N3CCCCC3)O[C@@H](CO)[C@@H]1O2` gave Vaccinia inh 17 and Vaccinia inh Venus 13.
Screening O=S(=O)(c1cccs1)N1CCCCN2[C@H](C1)[C@H](c1ccc(Br)cc1)[C@@H]2CO returned Vaccinia inh -22 and Vaccinia inh Venus -18.
Screening COc1ccc2c3c(n(C)c2c1)[C@@H](CO)N(CC1CC1)CC31CCN(C(=O)c2ccc3c(c2)OCO3)CC1 returned Vaccinia inh -20 and Vaccinia inh Venus -23.
`C[C@H]1CN([C@@H](C)CO)C(=O)c2cc(NC(=O)Nc3ccccc3)ccc2O[C@H]1CN(C)Cc1ccc(Oc2ccccc2)cc1` gave Vaccinia inh -26 and Vaccinia inh Venus -18.
`C[C@@H]1CN([C@H](C)CO)C(=O)c2cc(NC(=O)Nc3ccc(F)cc3)ccc2O[C@@H]1CN(C)CC1CCCCC1` gave Vaccinia inh -20 and Vaccinia inh Venus -9.
For COCC(=O)N(C)C[C@H]1Oc2ncc(-c3ccccc3OC)cc2C(=O)N([C@@H](C)CO)C[C@H]1C the results were Vaccinia inh 3 and Vaccinia inh Venus 5.
For CCNC(=O)C[C@@H]1CC[C@@H]2[C@H](COc3ccc(NC(C)=O)cc3C(=O)N2C)O1 the results were Vaccinia inh 2 and Vaccinia inh Venus -3.
For Cc1ccc(S(=O)(=O)Nc2ccc3c(c2)C(=O)N([C@H](C)CO)C[C@@H](C)[C@H](CN(C)S(C)(=O)=O)O3)cc1 the results were Vaccinia inh 20 and Vaccinia inh Venus -1.
`C[C@@H]1CN([C@H](C)CO)C(=O)Cc2cc(NC(=O)C3CCCCC3)ccc2O[C@H]1CN(C)S(=O)(=O)c1cn(C)cn1` gave Vaccinia inh 14 and Vaccinia inh Venus 4.
For C[C@H]1CN([C@@H](C)CO)C(=O)Cc2cc(NS(=O)(=O)c3cccs3)ccc2O[C@@H]1CN(C)Cc1ccc(-c2ccccc2)cc1 the results were Vaccinia inh inconclusive.
`COc1ccc(NC(=O)Nc2ccc3c(c2)C(=O)N([C@@H](C)CO)C[C@H](C)[C@H](CN(C)Cc2ccc(C(=O)Nc4ccccc4N)cc2)O3)cc1` gave Vaccinia inh 1 and Vaccinia inh Venus 6.
`COCCNC(=O)C[C@@H]1C[C@H]2c3cc(NC(=O)NC4CCCC4)ccc3O[C@H]2[C@@H](CO)O1` gave Vaccinia inh 9 and Vaccinia inh Venus 11.
